MT1-MMP act inh – blockers of MT1-MMP proenzyme processing, primary screen, HT1080 RFP-PRO-GFP cells, GFP/RFP fluorescence. GFP/RFP ratio change, % at 20 µM. AID 651647, 2012. GFP/RFP ratio fluorescence, overnight; percent of plate control window, DMSO zero. actives 0.061% (n = 360,000). Matrix metalloproteinase-14 (Homo sapiens), P50281;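 active means GFP/RFP ratio change of at least 30% with cell ATP level not reduced by more than half and red fluorescence within 50% of control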; further: strong numbers were not always called active
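system = RFP-PRO-GFP reporter HT1080 cells | dosing = 20 µM single dose, 1% DMSO | timing = overnight cell settling, then overnight compound exposure, 37 °C, 5% CO2 | read-out basis = GFP/RFP fluorescence ratio | controls = DMSO and RFP-L50D-GFP cell wells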
Rce1 inh – yeast Rce1p protease inhibitors, primary screen, biochemical, fluorescence, cell-free homogeneous; calls only; actives 0.27% (n = 290,000); yeast membranes, quenched prenylated peptide cleavage fluorescence; AID 2563, 2010;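 active means fall in fluorescence gain of 50% or more versus controls, with final raw signal at or below 3038400; inconclusive means same 50% fall but final raw signal above 3038400; inactive means fall in fluorescence gain under 50%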;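 further: plate controls were neutral control wells for no effect and wells lacking membranes for full effect; tested at 10 µM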
Target sequence (Q03530 whole entry, looked up): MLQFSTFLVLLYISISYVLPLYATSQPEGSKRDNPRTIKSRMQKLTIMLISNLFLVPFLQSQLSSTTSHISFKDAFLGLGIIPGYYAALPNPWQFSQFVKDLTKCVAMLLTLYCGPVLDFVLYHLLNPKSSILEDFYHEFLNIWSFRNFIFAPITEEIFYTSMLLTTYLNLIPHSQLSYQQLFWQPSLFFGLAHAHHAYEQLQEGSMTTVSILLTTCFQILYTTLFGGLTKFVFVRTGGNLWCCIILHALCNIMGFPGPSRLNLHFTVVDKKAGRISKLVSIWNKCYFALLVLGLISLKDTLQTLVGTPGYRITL
CSC inhib – cancer stem cell viability inhibitors, primary screen, luminescence. actives 1.1% (n = 300,000). cancer stem cell-like cells viability. inhibition, % at 7.5 µM. AID 2717, 2010;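 active means mean at 75% or more and at least half the replicates too; inconclusive means mean and replicates disagree; tested in HMLE shEcad cells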;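 further: 0% = median of negative and 100% = median of positive control wells; the first replicate is given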
PABP FP inh – PABP poly(A) RNA binding inhibitors, primary screen, biochemical, fluorescence polarization, uHTS; inhibition, % at 35 µM; AID 2014, 2009; actives 1% (n = 290,000);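 active means 50% or more with normal probe brightness, or confirmed in later tests; inconclusive means above 50% with abnormal brightness, or retests that disagree; inactive means below 50% or failed in later tests; about a fifth of its hits are not listed in these tables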;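 further: calls also rest on retests at 20 µM and on dose response follow-up; controls were probe without protein and protein plus probe with vehicle; some compounds called inactive have numbers as strong as hits; many hits fall short of the cut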
Target sequence (P11940 whole entry, looked up): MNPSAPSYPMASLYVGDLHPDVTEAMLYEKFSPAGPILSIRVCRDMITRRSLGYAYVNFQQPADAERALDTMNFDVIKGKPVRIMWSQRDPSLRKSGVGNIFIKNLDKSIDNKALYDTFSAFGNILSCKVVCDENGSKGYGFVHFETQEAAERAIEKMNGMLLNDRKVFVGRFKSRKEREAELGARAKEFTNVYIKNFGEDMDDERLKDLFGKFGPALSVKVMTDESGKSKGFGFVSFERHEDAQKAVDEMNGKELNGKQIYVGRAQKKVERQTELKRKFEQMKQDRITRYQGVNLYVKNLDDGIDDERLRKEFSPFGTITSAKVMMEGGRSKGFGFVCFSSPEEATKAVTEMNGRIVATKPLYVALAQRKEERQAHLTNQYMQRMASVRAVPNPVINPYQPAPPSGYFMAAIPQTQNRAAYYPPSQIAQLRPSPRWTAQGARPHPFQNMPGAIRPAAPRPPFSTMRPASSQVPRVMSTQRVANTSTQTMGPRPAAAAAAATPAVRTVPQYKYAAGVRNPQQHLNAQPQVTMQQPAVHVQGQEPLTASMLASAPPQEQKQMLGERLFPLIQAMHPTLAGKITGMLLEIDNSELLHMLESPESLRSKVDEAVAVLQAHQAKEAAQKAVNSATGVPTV
UUG fidelity – modulators of yeast start codon fidelity, primary screen, whole organism, S. cerevisiae, single point, plate reader | S. cerevisiae UUG-firefly luciferase reporter, luminescence/redox ratio | activity score, % at 18.7 µM | actives 0.13% (n = 350,000) | AID 602363, 2012;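 active means replicate mean at a twofold rise or more, about +100% in these data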;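 further: firefly luciferase made from a UUG start codon reports start codon fidelity; reporter light over untreated wells divided by growth signal over untreated wells; some hits fall short of that in this replicate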
HIV Env fusion – inhibitors of HIV-1 Env-driven cell-cell fusion, primary screen, HeLa-JRFL effector, CEM21 target cells, luciferase. inhibition, % at 12.3 µM. actives 1.1% (n = 360,000). AID 651610, 2012;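 active means mean replicate inhibition score of at least 50 and every replicate individually at or above 50; inconclusive means only one of the two criteria met; inactive means mean below 50 and not all replicates reaching 50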;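 further: 0% = plate neutral controls and 100% = maraviroc near 300 nM; one replicate is shown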
eIF4H inh – human eIF4H binding inhibitors, primary screen, translation initiation inhibitor project, biochemical, uHTS, fluorescence polarization; Eukaryotic translation initiation factor 4H (Homo sapiens), Q15056; eIF4H fluorescence polarization binding assay; inhibition, % at 35 µM; actives 0.94% (n = 290,000);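 active means 50% or more with normal probe brightness, or confirmed in later tests; inconclusive means above 50% with abnormal brightness, or retests that disagree; inactive means below 50% or failed in later tests; about a fifth of its hits are not listed in these tables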;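 further: calls also rest on retests at 20 µM and on dose response follow-up; 0% = protein and probe with vehicle and 100% = probe without protein; strong numbers were not always called active; many hits fall short of the cut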
MT1-MMP act inh RFP – also measured in MT1-MMP act inh; calls as there; RFP signal change, %; measured here: RFP expression control read;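 0 = vehicle wells; hits needed this value within 50% of zero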
* marks the source's active call; other numbers are inactive results; i = inactive; u = inconclusive; x = not tested or not shown. Some of the compounds tested. The share of hits here may be higher or lower than overall.

SMILES | MT1-MMP act inh | MT1-MMP act inh RFP | Rce1 inh | CSC inhib | PABP FP inh | UUG fidelity | HIV Env fusion | eIF4H inh
CCNCC1(c2ccc(OC)c(OC)c2)CCCC1 | -4 | 2 | i | 2 | 5 | 5 | x | -5
Cn1cc(C(=O)OCC(=O)N2CCCCC2)c2ccccc21 | -1 | 0 | x | -6 | x | -7 | -5 | x
O=C(OC1CCN(CCCl)CC1)C(c1ccccc1)c1ccccc1 | -3 | -1 | x | 5 | x | -12 | -4 | x
O=C(Cc1ccccc1)N1CCN(CC2CC=CCC2)CC1 (stereo not given) | -1 | -2 | i | 2 | 21 | -5 | -75 | -1
CC1OC(NCCc2ccccc2)C(O)C(O)C1O (stereo not given) | -2 | 10 | i | -12 | 6 | 8 | -13 | -2
CNC(=O)Oc1ccccc1C1CCCCC1 | -1 | 5 | x | x | x | -18 | -1 | x
Cc1c(C(=O)C(=O)N2CCOCC2)c2ccccc2n1Cc1ccccc1 | -4 | -2 | i | x | -6 | -9 | 8 | -9
O=C1NC(=O)C(CCc2ccncc2)(Cc2cccc(Cl)c2Cl)C(=O)N1c1ccc(Br)cc1 (stereo not given) | -30 | -33 | i | 66 | -15 | -8 | u | -5
CCCCCn1c(=O)c(C(=O)Nc2cccc(C)c2)c(O)c2ccccc21 | -13 | -5 | i | 11 | 10 | -19 | 4 | 1
Cc1ccc(OCC(=O)Nc2ccc(Cl)cc2C(=O)c2ccccc2)cc1 | 3 | 4 | i | 24 | -10 | -3 | 29 | -2

The closing 2 entries of the section before lead into the next:
SMILES | MT1-MMP act inh | MT1-MMP act inh RFP | Rce1 inh | CSC inhib | PABP FP inh | UUG fidelity | HIV Env fusion | eIF4H inh
CCCCCn1c(=O)c(C(=O)Nc2cccc(C)c2)c(O)c2ccccc21 | -13 | -5 | i | 11 | 10 | -19 | 4 | 1
Cc1ccc(OCC(=O)Nc2ccc(Cl)cc2C(=O)c2ccccc2)cc1 | 3 | 4 | i | 24 | -10 | -3 | 29 | -2
CCn1c(O)c(C=NCc2ccccc2)c(=O)[nH]c1=S | -2 | 1 | x | -8 | 3 | x | 9 | -12
CCCCCn1c(=O)c(C(=O)Nc2ccccc2C)c(O)c2ccccc21 | 1 | -3 | i | 1 | 4 | -16 | -24 | -2
COc1ccc(CNC(=O)/C=C/c2ccc3[nH]cc(CCN(C)C)c3c2)cc1 | 2 | 2 | i | -6 | -6 | -7 | -27 | -3
CC1(CCCc2ccc(N(CCCl)CCCl)cc2)NC(=O)NC1=O (stereo not given) | 2 | 2 | x | x | x | 1 | 7 | x
CN1CCC(O)(c2ccccc2)C2CCCC21 (stereo not given) | 3 | 1 | i | -3 | 1 | -16 | x | -3
COCCCNC(=O)c1c(NC(=O)c2ccco2)n(Cc2ccccc2)c2nc3ccccc3nc12 | -13 | 3 | i | x | 22 | -16 | x | 4
CCOP(=O)(OCC)OCC | 2 | 12 | x | -17 | x | -12 | x | x
C[N+](C)(N)CCOC(=O)C(O)(c1ccccc1)C1CCCCC1 (stereo not given) | -2 | -1 | i | -4 | x | -21 | -8 | x
CC12CN3CCN(CC(C3)C1O)C2 (stereo not given) | -1 | -2 | i | -12 | -9 | -1 | x | -4
C=C1C[C@@H]2[C@H](CC[C@]3(C)C(=O)CC[C@@H]23)[C@@]2(C)C=CC(=O)C=C12 | x | x | i | -4 | 9 | x | x | -1

Taken from above.
UUG fidelity result of CCOP(=O)(OCC)OCC stands at -12
CSC inhib result of C=C1C[C@@H]2[C@H](CC[C@]3(C)C(=O)CC[C@@H]23)[C@@]2(C)C=CC(=O)C=C12 stands at -4
PABP FP inh result of CN1CCC(O)(c2ccccc2)C2CCCC21 (stereo not given) stands at 1
UUG fidelity result of COCCCNC(=O)c1c(NC(=O)c2ccco2)n(Cc2ccccc2)c2nc3ccccc3nc12 stands at -16
PABP FP inh result of CCn1c(O)c(C=NCc2ccccc2)c(=O)[nH]c1=S stands at 3

(more compounds)
SMILES | MT1-MMP act inh | MT1-MMP act inh RFP | Rce1 inh | CSC inhib | PABP FP inh | UUG fidelity | HIV Env fusion | eIF4H inh
C[n+]1c(-c2ccccc2)cc(-c2ccc(O)cc2)cc1-c1ccccc1 | -6 | -20 | i | 3 | 2 | -4 | 6 | -4
CC(=NCC1CCCO1)c1c(O)n(Cc2ccccc2)c(=O)[nH]c1=O (stereo not given) | 3 | 1 | i | 5 | 2 | -4 | -81 | -13
CCC1=Nc2cc(C(=O)N3CCC4(CC3)OCCO4)ccc2Sc2ccc(Br)cc21 | -6 | -5 | i | 13 | -6 | -14 | -4 | -4
NC(Cc1ccc(Cl)cc1)c1csc(Nc2cnccn2)n1 (stereo not given) | -4 | -1 | x | x | x | 1 | 11 | x
Cc1ccccc1NC(=O)CCl | 3 | 1 | i | -6 | 2 | x | 0 | -1
CCOC(=O)CN1C(=O)C2(C(C#N)=C(N)Oc3ccccc32)C(C(=O)OC)=C1C (stereo not given) | 7 | 4 | x | -3 | -4 | 10 | x | 6
CCC(C)N1CCN(C(=O)Cc2ccccc2)CC1 (stereo not given) | 3 | 2 | i | x | 2 | -1 | x | -1
CCCCN1C(=O)NC(=O)C2(Cc3c(nc4c(C)cccn4c3=O)N3CCc4ccccc4C32)C1=O (stereo not given) | -9 | -6 | i | -2 | -9 | -1 | -74 | 0
O=c1c2ccccc2nc(-c2ccccc2)n1-c1nccs1 | -2 | -5 | i | 0 | -6 | 0 | 15 | -2
CCCNC(=O)N1[C@H]2CC[C@@H]1C(C(=O)OC)=C(c1ccc(F)cc1F)C2 | 1 | 2 | x | -14 | x | 14 | 4 | x
COc1ccc(C(C)=O)cc1CC(C(=O)c1ccc(C)cc1)N(C)C (stereo not given) | -3 | 0 | i | -6 | -14 | -13 | 5 | -6
O=C1/C(=C\c2cc3c(cc2Cl)OCO3)N2CCC1CC2 | -4 | -3 | i | -19 | 0 | -13 | 19 | 16
O=c1oc2ccccc2c(O)c1C(c1ccccn1)c1c(O)c2ccccc2oc1=O | 6 | 3 | i | -1 | 10 | x | -17 | 6
COc1ccc(CCNCc2ccccc2F)cc1 | 2 | 2 | i | -4 | -6 | 6 | 4 | 2
CC1CCN(CC#CCOc2ccc(Cl)cc2)CC1 | 0 | 8 | i | 2 | 10 | -4 | 21 | 12
CCCCc1ccc(NC2=NCCCS2)cc1 | 3 | 2 | i | 51 | -4 | -8 | -15 | -18
CCC(C)C1(CC)C(=O)NC(=O)N=C1N (stereo not given) | 3 | 6 | i | -7 | 12 | x | -24 | 6
CC(=O)C1(c2ccccc2)CCN(C(=O)C2CCC(=O)N(CCc3cccc(F)c3)C2)CC1 (stereo not given) | 4 | -2 | i | 1 | -2 | 14 | -5 | -3
CC[N+](C)(CC)CCCOC(=O)C(O)(c1ccccc1)C1CCCCC1 (stereo not given) | -6 | -2 | i | -11 | -8 | 1 | x | -8
Cc1nc2cc(-c3ccc(Cl)cc3)nn2c(C)c1CCC(=O)N1CCC2(CC1)OCCO2 | 5 | -4 | x | x | x | -2 | 79* | x
Cc1ccc(C2=NC(C)(C)N3C2C3c2ccc([N+](=O)[O-])cc2)cc1 (stereo not given) | 1 | 1 | i | 10 | 4 | -11 | 20 | 4
CN1CC(C(=O)c2ccc(Cl)cc2)C(c2ccc(N(C)C)cc2)C1 (stereo not given) | -11 | 0 | i | 0 | -1 | x | 5 | -6
CCOc1cc(CNCCc2c[nH]c3ccccc23)cc(Cl)c1OC | 4 | 2 | i | 47 | 5 | x | 68* | -6
NP(=O)(OCCCc1ccccc1)c1ccccc1 (stereo not given) | 8 | 2 | i | 3 | 3 | -11 | 9 | -2
CC(C)OC(=O)C1C2c3ccccc3C(c3ccccc32)C1C(=O)O (stereo not given) | 1 | 5 | i | 1 | 1 | x | -19 | -6
CCCC1(CCC)C(=O)NC(=Nc2ccccc2)NC1=O | 4 | -1 | i | -8 | -13 | x | x | -9
O=C1NC(=O)C2(Cc3ccccc3N3CCCC32)C(=O)N1c1ccc(Cl)cc1 (stereo not given) | x | x | i | x | 27 | 1 | 5 | -5
N#C[C@H](O[C@@H]1O[C@H](CO[C@@H]2O[C@H](CO)[C@@H](O)[C@H](O)[C@H]2O)[C@@H](O)[C@H](O)[C@H]1O)c1ccccc1 | -4 | 2 | x | 3 | x | -17 | -17 | x
CN(C)c1ccc(C(=O)c2ccc(N(C)C)cc2)cc1 | -7 | -12 | i | x | 2 | -8 | -139 | 4
O=C1CC(c2cccnc2)=NN1c1ccccc1 | 4 | 2 | i | 2 | -5 | -13 | 6 | 9
CC(Cc1ccccc1)NC(=O)Cc1ccc([N+](=O)[O-])cc1 (stereo not given) | 3 | 3 | i | 18 | -3 | 0 | 9 | 0
COC(=O)C1=C(c2ccc(OC)c(OC)c2)C[C@@H]2CC[C@H]1N2C(=O)NCCOc1ccc(OC)cc1 | 3 | 2 | x | -3 | x | 5 | 17 | x
COC(=O)C1=C(c2ccccc2OCc2ccccc2)C[C@@H]2CC[C@H]1N2C(=O)NCc1ccc(C(C)(C)C)cc1 | -9 | -9 | x | 24 | x | -19 | 4 | x
CN(C)C1(c2nnnn2-c2ccc(Cl)cc2)CCCCC1 | -2 | -1 | i | -3 | -11 | 1 | -13 | -6
N#CC1c2ccccc2-n2nncc2CN1S(=O)(=O)c1ccccc1 (stereo not given) | 1 | 7 | x | x | x | -12 | 1 | x
c1cncc(C2CC(c3cccs3)n3ncnc3N2)c1 (stereo not given) | 1 | 0 | i | -4 | 7 | -18 | x | 10
Nc1ccc(CCN2CCCC2)cc1 | 0 | 1 | i | -8 | 25 | -1 | -7 | 0
O=c1[nH]c(O)c(N=Nc2ccc3c(c2)OCCO3)c(=O)[nH]1 | -6 | 1 | i | 10 | 11 | x | -138 | 11
CCCCCCCSc1cc(OC)c(CCNC)cc1OC | -6 | -7 | i | 41 | 4 | -4 | x | 6
CN1CCCN(C(=O)COc2ccccc2Br)CC1 | 2 | 0 | i | -2 | -2 | -8 | 3 | 13
CCCCn1c(=O)c(C(=O)NCc2ccco2)c(O)c2ccccc21 | -2 | -7 | i | -8 | -2 | x | 7 | -3
CCOC(=O)CNC(=O)N1Cc2cc(N3CCOCC3)ccc2-n2nncc2C1 | 5 | 7 | x | x | x | -5 | -9 | x
O=C(c1ccc(Cl)cc1)C1CCCN(Cc2ccc3c(c2)OCCO3)C1 (stereo not given) | 3 | 1 | i | -10 | 4 | 19 | 9 | -3
COC(=O)C1=C(c2ccc(F)cc2OCc2ccccc2)C[C@@H]2CC[C@H]1N2C(=O)N1CCC(O)CC1 | 1 | -3 | x | -11 | x | 12 | x | x
Cc1ccc(-c2nc3ccc(Cl)cc3n2OC(=O)N(C)C)cc1 | 2 | -7 | i | 1 | -4 | x | x | -8
Cc1ccc(-c2nn(Cc3ccccc3)cc2C(=O)O)cc1 | 0 | 4 | i | -6 | 5 | x | 3 | -6
CC1=NOC2(C)Nc3ncnn3C(c3ccccc3)C12 (stereo not given) | 0 | -2 | i | -4 | 3 | -10 | 1 | 0
COc1cc(-n2c(=S)[nH]c3ccccc3c2=O)c(Cl)cc1Cl | -4 | -4 | i | 3 | -9 | -10 | x | -9
Cc1cccc(C)c1OP(N)(=O)OCC(F)(F)F (stereo not given) | -5 | -1 | i | -1 | -8 | -4 | -36 | -8
Clc1ccc(C(Cn2ccnc2)OCc2csc3c(Cl)cccc23)c(Cl)c1 (stereo not given) | -14 | -21 | x | 107* | x | -29 | -11 | x

Screening data deposited in PubChem by several laboratories.
